VDR inh = vitamin D3 receptor (human) inhibition. P11473. VDR-SRC2-3 peptide fluorescence polarization, 2 h. Potency, µM, without a hit: max response, negative = inhibition, usual class: inhibitors. 400,000 compounds, 0.93% hits. AID 504847; active = well fitted inhibition curve with a large enough effect; inconclusive = small, poorly fitted or top-dose-only effect, or another doubt; inactive = no such curve, though single readings can be large or run the other way; note: series mostly up to about 120 µM
Target sequence (P11473 whole entry, looked up): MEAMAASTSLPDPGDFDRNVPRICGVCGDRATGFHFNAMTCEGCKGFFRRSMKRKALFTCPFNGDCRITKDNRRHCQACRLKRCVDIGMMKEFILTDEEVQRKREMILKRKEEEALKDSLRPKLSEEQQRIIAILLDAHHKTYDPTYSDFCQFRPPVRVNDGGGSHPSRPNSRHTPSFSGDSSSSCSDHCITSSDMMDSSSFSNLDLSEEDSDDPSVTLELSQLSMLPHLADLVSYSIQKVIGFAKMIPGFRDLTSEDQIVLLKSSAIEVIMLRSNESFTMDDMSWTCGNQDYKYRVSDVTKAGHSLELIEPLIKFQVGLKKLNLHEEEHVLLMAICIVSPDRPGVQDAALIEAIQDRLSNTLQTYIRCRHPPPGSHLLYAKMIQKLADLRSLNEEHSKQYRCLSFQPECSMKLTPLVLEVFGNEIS
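Signal is fluorescence polarization, reporting how far test compounds block the interaction of VDR with the SRC2-3 coregulator peptide after a 2 h room-temperature incubation.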
* = called active by the depositor; ? = inconclusive; & = joins results of further samples. % is set by controls: 0 for no effect and ±100 for the full control effect; potency is the fitted concentration of half-maximal effect. A portion of the library; the hit share may differ from the screen's.

VDR inh	Structure
4%	COc1ccc(OC)c(-n2nnc(-c3nc(-c4ccc5c(c4)OCO5)no3)c2C)c1
-11%	C[C@@H]1O[C@@H]1P(=O)(O)O
7%	CCOC(=O)C1CCCN(C(=S)Nc2cc(C)cc(C)c2)C1 (stereo not given)
-3%	CCCCCCSc1cc(-c2nc3ccc(C)cn3c2NCc2ccccc2)ccc1OC
-10%	COc1cccc(-c2csc3nc[nH]c(=O)c23)c1
-21%	O=C(CCN1C(=O)c2ccccc2C1=O)C1=NN[C@@H]2C(=O)N(c3ccc4c(c3)OCCO4)C(=O)[C@H]12
-1%	CCOP(=O)(OCC)c1nc(/C=C/c2ccccc2)oc1NCc1ccc(OC)cc1
-15%	CN(C)C(CNc1ccc(C(F)(F)F)cn1)c1ccccc1 (stereo not given)
9%	COc1cccc(/C=N/Nc2nc(Nc3ccccc3)nc(-n3nc(C)cc3C)n2)c1O
-2%	Cc1cc(C)c(NC(=S)NCCCSC2CCCCC2)c(C)c1
-19%	Cc1ccc(C)c(NC(=O)COC(=O)c2ccc(S(=O)(=O)N3CCCCC3)cc2)c1
-7%	CN(Cc1ccc(F)cc1)C(=O)c1cc(COc2ccc(-n3cncn3)cc2)on1
-13%	COc1ccc(Cl)cc1NC(=O)c1ccccc1C
-13%	COCc1ccc(-c2c(-c3ccc(OC)cc3)oc(=O)c3cc(OC)c(OC)cc23)cc1
-9%	O=C(c1c[nH]c2ccc(S(=O)(=O)Nc3ccccc3F)cc2c1=O)N1CCCCCC1
-18%	CN(c1ccc(C(=O)N2CCN(c3ccc(F)cc3)CC2)cc1)S(C)(=O)=O
9%	COc1ccc(C(=O)N2CCN(c3cccc(Cl)c3)CC2)cc1S(=O)(=O)NC1CC1
-4%	CNc1nc2cc([N+](=O)[O-])c([N+](=O)[O-])cc2nc1NC
-8%	Cc1cccc(NC(=O)COC(=O)CN2CCCCCC2=O)c1C
17%	C=C(Br)Cn1c(CCC)nc2ccccc21
12%	COc1cc(C(=O)OCCCN=C2NS(=O)(=O)c3ccccc32)cc(OC)c1OC
4%	CCN1c2ccccc2-c2nc3ccccc3n2C1c1ccco1 (stereo not given)
-7%	O=C1C(Cl)=C(N2CCCCCC2)C(=O)N1c1ccccc1Cl
-26%	N[C@@H](CSCCCO)C(=O)O
1%	Cc1cc(C(=O)Nc2nncs2)oc1C
-16%	Cc1[nH]n(C(N)=S)c(=O)c1N=Nc1ccc(S(=O)(=O)N2CCCCCC2)cc1
-14%	O=C(CSc1cccc[n+]1[O-])c1ccc(-c2ccccc2)cc1
-4%	O=C(NNc1ccccc1[N+](=O)[O-])NC1CCCCC1
2%	Cc1cc(C)c(NC(=O)CSc2nc3ccccc3c3nc(CCn4cncc4C)nn23)c(C)c1
1%	COc1cccc(-c2sc3ccc(OC)cc3c2C#CC2(O)CCCCC2)c1
19%	CCCn1c(=N)n(CC(=O)c2ccc(Cl)cc2)c2ccccc21
-16%	COc1cc(NC(=O)C2CC(=O)N(Cc3ccco3)C2)cc(OC)c1 (stereo not given)
-13%	COC(=O)c1c(NC(NC(=O)C(C)C)C(Cl)(Cl)Cl)sc2c1CCC2 (stereo not given)
4%	COc1ccc(C2(C(=O)N3CCOCC3)CCCC2)cc1
1%	COc1cc(OC)c(NC(=O)CCc2nc(-c3ccc(C)cc3)no2)cc1Cl
-19%	O=C(Cc1ccccc1)NC1CCSc2ccccc21 (stereo not given)
8%	CCCCOc1ccc(C2/C(=C(\O)c3ccc4c(c3)OCCO4)C(=O)C(=O)N2CCCN2CCOCC2)cc1 (stereo not given)
-21%	O=c1c2ccccc2nnn1COc1cccc(Cl)c1
-2%	CC(c1ccncn1)N(C)Cc1nc(Cc2ccccc2F)no1 (stereo not given)
2%	COc1ccc(/C=C(/NC(=O)c2ccccc2)C(=O)N2CCOCC2)cc1OC
-22%	O=C1NCCN1CCNS(=O)(=O)c1ccc(F)cc1
7%	CNC(=S)N1CCN(c2ccccn2)CC1
-15%	COC(=O)CN(c1ccc(OC)cc1)S(=O)(=O)c1ccc(OC)c(OC)c1
-15%	C=CCNC(=S)NNC(=O)c1cc(Cl)ccc1OC
-9%	CC(C)COc1ccccc1C1CC(=O)Nc2cc3c(cc21)OCO3 (stereo not given)
?	Cc1c(N=C2C=CC(=O)c3ccccc32)c(=O)n(-c2ccccc2)n1C
13%	COc1ccc(N(C(=O)c2snc(C(N)=O)c2N)C(CC(C)C)C(=O)NCC2CCCO2)cc1 (stereo not given)
-3%	CC(C)(C)NC(=O)C(c1ccncc1)N(C(=O)c1csnn1)c1cccc2ccccc12 (stereo not given)
2%	N#CC1=C(N)OC2=C(C(=O)CCC2)C1Cc1ccccc1 (stereo not given)
8%	COc1ccc(C(=O)NC23CC4CC(CC(C4)C2)C3)cc1OC

Reprinted from the part before: 2 entries, followed by the next part.
VDR inh	Structure
2%	N#CC1=C(N)OC2=C(C(=O)CCC2)C1Cc1ccccc1 (stereo not given)
8%	COc1ccc(C(=O)NC23CC4CC(CC(C4)C2)C3)cc1OC
-7%	Cc1oc(-c2ccccc2)nc1C(=O)Nc1nccs1
11%	O=C(CN(Cc1ccccc1)S(=O)(=O)c1ccc(Cl)cc1)NCC1CCCO1 (stereo not given)
-18%	COc1ccc(/C=C/C(=O)NC(=S)N2CCN(c3ccccn3)CC2)cc1OC
-13%	C[C@@H]1CN([C@H](C)CO)C(=O)Cc2cc(NC(=O)Nc3ccccc3)ccc2O[C@@H]1CN(C)Cc1ccc2c(c1)OCO2
11%	Clc1cccc(CN2CCN(Cc3nc(CCc4ccccc4)no3)CC2)c1
-13%	Cc1ccc(-c2n[nH]c(=S)n2Cc2ccccc2)cc1
-21%	CN(C(=O)c1cc(S(=O)(=O)N2CCc3ccccc32)cn1C)C1CCCCC1
-16%	COc1ccccc1NC(=O)c1c(Nc2ccccc2F)sc(C(=O)Nc2cccc(Cl)c2)c1N
-6%	CCn1c(=O)n(CC(=O)N(C)Cc2ccccc2)c(=O)c2ccccc21
-23%	O=C(C[C@H]1C/C=C/CC[C@@H](Cc2ccc(F)cc2)C(=O)OC[C@H](c2ccccc2)NC1=O)NCCO
?	Fc1ccccc1/C=C/c1ccc2ccccc2n1
11%	COc1c(C)cc(S(=O)(=O)NC2CC(C)(C)NC(C)(C)C2)c(C)c1C
8%	O=C(NCc1ccc2c(c1)OCO2)C1CCN(S(=O)(=O)c2cccs2)CC1
-8%	Cc1ccc(S(=O)(=O)c2nnn3c2nc(NC2CCCCCC2)c2sccc23)cc1C
1%	O=C(NC1CCCC1)C(c1ccncc1)N(C(=O)c1csnn1)C1CCCC1 (stereo not given)
-1%	O=C(Nc1ccc(Cl)c(S(=O)(=O)N2CCOCC2)c1)[C@@H]1CCCN1C(=O)c1cccs1
5%	COc1ccc(/C=N/NC(=O)c2ccc(Cn3cc([N+](=O)[O-])cn3)o2)cc1O
-8%	Cc1cccc(C(=O)NCc2nnc(SC(C)C(=O)Nc3nnc(C)s3)n2C)c1 (stereo not given)
-12%	CCOC(=O)C1(Cc2cccc(OC)c2)CCN(Cc2cnc(C)s2)CC1
-5%	O=C1C2C3C=CC(C3=C(c3ccccc3)c3ccccc3)C2C(=O)N1Cc1ccccc1 (stereo not given)
-16%	Cc1cc(C)n(C2CC(=O)N(c3cc(Cl)cc(Cl)c3)C2=O)n1 (stereo not given)
-4%	COc1ccc(Cl)cc1N(CC(=O)NCCSc1ccccn1)S(=O)(=O)c1ccccc1
9%	O=C(CNC(=O)c1ccc(F)cc1)NCc1ccccn1
-11%	O=C(NCCCCCNC(=O)c1ccccn1)c1ccccn1
-8%	COc1cc(OC)cc(C(=O)NC(=S)Nc2ccc3oc(=O)ccc3c2)c1
-4%	CCOC(=O)C1CCN(CC(C)(C)NS(=O)(=O)c2ccccc2)CC1
-2%	COc1cccc(NC(=O)c2oc3ccccc3c2NC(C)=O)c1
-1%	COc1ccc(N(CC(=O)NCc2ccco2)S(C)(=O)=O)c(OC)c1
-20%	S=c1[nH]nc(C2CC2c2ccc(Cl)cc2)n1-c1ccc(Cl)cc1 (stereo not given)
14%	Cc1nn(CC(=O)Nc2nc3ccccc3s2)c(C)c1[N+](=O)[O-]
-8%	COC(C[C@@H](O)[C@H](C)[C@@H](O)COCc1ccccc1)OC
-24%	O=C(NCc1ccccc1C(F)(F)F)C1CC(c2ccccc2[N+](=O)[O-])=NO1 (stereo not given)
-24%	c1ccc(SCc2nc3ccccc3s2)nc1
8%	CCc1ccccc1NC(=O)Cn1nc2c3cc(F)ccc3n(Cc3cccc(C)c3)cc-2c1=O
-14%	CCn1c(Cc2ccccc2)nnc1SCC(=O)Nc1ccccc1F
6%	OC(COCc1ccco1)CN1CCN(c2ccccc2)CC1 (stereo not given)
11%	COC(=O)CSc1ccc2nnc(-c3ccc(OC)c(OC)c3)n2n1
11%	Cc1cccc(N2CCN(C(=O)C3CCCCC3)CC2)c1C
-9%	CN(CC(=O)Nc1ccc(Cl)cc1)CC(=O)Nc1ccc(F)c(F)c1F
11%	C/C(=C\COc1ccc2ccc(=O)oc2c1)CC[C@@H](O)C(C)(C)O
11%	CCOC(=O)CSC1=Nc2ccccc2C2=NC(CCC(=O)NCc3ccc(F)cc3)C(=O)N12 (stereo not given)
-3%	CCC(=O)Nc1ccc(C(=O)NNC(=O)c2ccc(Cl)cc2)cc1
9%	Nc1ncnc2nc(SCCc3ccccc3)[nH]c12
8%	CCOc1cccc(C(=O)NC2=NCCS2)c1
11%	COc1ccnc(Oc2ccc(F)cc2)c1C(=O)N/C=N/OCc1ccccc1
2%	CCOc1ccc2c(c1)c(=O)c(S(=O)(=O)c1ccc(C)cc1)cn2CC(=O)Nc1ccc(C)cc1
20%	CSc1cccc(N2CC(C(=O)N(Cc3nnc(-c4ccccc4Cl)o3)C3CC3)CC2=O)c1 (stereo not given)
3%	CCN1CCN(C(=O)CN2C(=O)c3ccccc3S2(=O)=O)CC1
5%	CCN(CC)CCCN=C1N[C@@H](c2ccccc2)C(C(=O)OC)=C(C)N1CC
-5%	Cc1ccc(S(=O)(=O)NC(CC(C)C)C(=O)Nc2nccs2)cc1 (stereo not given)

Reformatted in CSV form: part of the list above
Structure,VDR inh
O=C(C[C@H]1C/C=C/CC[C@@H](Cc2ccc(F)cc2)C(=O)OC[C@H](c2ccccc2)NC1=O)NCCO,-23%
Fc1ccccc1/C=C/c1ccc2ccccc2n1,?
COc1c(C)cc(S(=O)(=O)NC2CC(C)(C)NC(C)(C)C2)c(C)c1C,11%
O=C(NCc1ccc2c(c1)OCO2)C1CCN(S(=O)(=O)c2cccs2)CC1,8%
Cc1ccc(S(=O)(=O)c2nnn3c2nc(NC2CCCCCC2)c2sccc23)cc1C,-8%
O=C(NC1CCCC1)C(c1ccncc1)N(C(=O)c1csnn1)C1CCCC1 (stereo not given),1%

Other structures follow:
VDR inh	Structure
1%	CCc1ccccc1NC(=O)Cn1c(=O)n(-c2ccc(C)c(C)c2)c(=O)c2oc3ccccc3c21
7%	CC(=O)N1c2ccccc2C(CBr)=CC1(C)C
18%	Cc1c(CN(C)C)c2c(n1Cc1ccccc1)C(=O)c1ccc(Br)cc1-2
12%	CC(=O)NS(=O)(=O)c1ccc(NS(=O)(=O)c2ccccc2[N+](=O)[O-])cc1
-1%	CCN(CC)S(=O)(=O)c1cccc(NC(=O)CN2C(=O)c3ccc([N+](=O)[O-])cc3C2=O)c1
7%	O=C(CCNS(=O)(=O)c1ccc(Br)cc1)NNC(=O)C1COc2ccccc2O1 (stereo not given)
-5%	Cc1ccc(NC(=O)CSc2nnc(-c3cnccn3)n2C)cc1C
-5%	COc1ccccc1NC(=O)C1=C(C)Nc2nnnn2C1c1cc(Br)ccc1OC (stereo not given)
3%	COc1ccc(NC(=O)c2ccc3[nH]c(=O)c(=O)[nH]c3c2)c(OC)c1
?	COCCN1C(=O)N[C@@H](c2cccc(C(F)(F)F)c2)C(C(=O)OC)=C1C
-3%	CCc1ccccc1Nc1nc(N)nc(CSc2nnc3ccccn23)n1
9%	Cc1ccc(NC(=O)CN2C(=O)c3ccccc3Sc3ccc(C(=O)N4CCOCC4)cc32)c(Cl)c1
5%	COc1ccc(CCNC(=O)C2CCN(S(=O)(=O)c3c(C)noc3C)CC2)cc1OC
3%	COc1ccc(NS(=O)(=O)c2cc(NC(=O)C3CCCO3)ccc2N2CCCC2)cc1 (stereo not given)
-20%&2%	O=C1OCCN1C(=O)[C@H]1[C@H](c2ccc(Cl)cc2)C(c2cccc(Cl)c2)=NN1c1ccc(Br)cc1
12%	O=C(CNC(=O)c1ccc(Cl)cc1)NC1CCCCC1
?	Cc1csc(NC(=O)CCn2c(=O)oc3ccccc32)n1
14%	COC(=O)c1cc(COC(=O)c2cccnc2SC)oc1C
4%	CCCCn1c(SCC(=O)N2CCOCC2)nc2ccccc2c1=O
-6%	CCC(NC(=O)Nn1cnnc1)(C(F)(F)F)C(F)(F)F
-19%	COc1cccc(C(=O)Nc2cc(C(=O)NCc3ccc(C)cc3)ccc2N2CCC3(CC2)CC(c2cccc(Br)c2)=NO3)c1
-5%	O=C(NC1CCSc2ccccc21)c1cc(S(=O)(=O)N2CCOCC2)ccc1F (stereo not given)
3%	C=CCn1c(-c2ccccc2)nc2nc3ccccc3nc21
-14%	COc1ccc(C(=O)CN2C(=O)c3ccccc3S2(=O)=O)cc1Br
-6%	O=c1ccc(NS(=O)(=O)c2ccc(Cl)cc2)cn1Cc1ccc(Cl)c(Cl)c1

Filtered by structure: those above containing a thiophene ring, fused or not (7)
VDR inh	Structure
-10%	COc1cccc(-c2csc3nc[nH]c(=O)c23)c1
1%	COc1cccc(-c2sc3ccc(OC)cc3c2C#CC2(O)CCCCC2)c1
-13%	COC(=O)c1c(NC(NC(=O)C(C)C)C(Cl)(Cl)Cl)sc2c1CCC2 (stereo not given)
-16%	COc1ccccc1NC(=O)c1c(Nc2ccccc2F)sc(C(=O)Nc2cccc(Cl)c2)c1N
8%	O=C(NCc1ccc2c(c1)OCO2)C1CCN(S(=O)(=O)c2cccs2)CC1
-8%	Cc1ccc(S(=O)(=O)c2nnn3c2nc(NC2CCCCCC2)c2sccc23)cc1C
-1%	O=C(Nc1ccc(Cl)c(S(=O)(=O)N2CCOCC2)c1)[C@@H]1CCCN1C(=O)c1cccs1

Assay outcomes (PubChem)
